# PrP UTR inh – inhibition of PrP 5' UTR reporter expression; cell-based PrP 5' UTR mRNA reporter, plate reader; inhibition, % (no concentration beside the values); 0.35% of 340,000 active; AID 488862;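 active means every replicate at 50% or more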;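 further: 0 = median of the neutral control wells; tested in H4 reporter cells; numbers are from one replicate; inactives centre near -14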
# BJeLR viability – BJeLR cell viability loss | inhibition, % (no concentration beside the values) | 0.17% of 300,000 active | AID 1554 | BJeLR (HRASV12) viability, CellTiter-Glo ATP luminescence, 48 h; reference of the scale not given here;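 active means replicate mean above 50%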;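 further: 50 nL library stock added to about 25 µL; numbers are from one replicate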
# Autofluor counter – compound fluorescence in toxin protease inhibitor counterscreen. compound autofluorescence counterscreen, microsphere flow cytometry; hits give high values. fluorescence intensity (no concentration beside the values). 3.1% of 360,000 active. AID 624483;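 active means at least 3 SD above the mean of all compounds, about 16000 in these data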;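 further: 100 nL of 1 mM stock went into each well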
# Sa ugtP lethal – compounds lethal to S. aureus RN4220 ugtP deletion mutant | OD600 growth, 16 h; some inactives read as strong as hits | growth inhibition, % (concentration not given with the values) | 0.54% of 330,000 active;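 active means z-score under -3 and OD600 up to 0.15 on both plates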;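 further: plate controls were untreated wells for no effect and antibiotic for full effect; wells of about 80 µL received 100 nL stock; the first replicate is given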
# Mtb hypoxia inh – reduces hypoxia-regulated biosensor signal in M. tuberculosis; AID 1159583; fluorescence inhibition, % (test concentration not listed); M. tuberculosis hypoxia-regulated fluorescent reporter, fluorescence; 0.1% of 300,000 active;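 active means 35 to 45% if threefold the growth effect, above 45% if 1.5-fold the growth effect; inactive means the rest, general growth blockers included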;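 further: wells of about 50 µL received 100 nL stock; 0% = vehicle wells and 100% = reference inhibitor wells; whole bacteria with a GFP reporter of the hypoxia response; strong numbers were not always called active; many hits fall short of the cut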
# Sa RN4220 lethal – S. aureus RN4220 growth inhibition; OD600, 16 h; inhibition, % (concentration not given with the values); 0.33% of 330,000 active; AID 1259311;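 active means z-score of -3 or lower and OD600 up to 0.18 on both plates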;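 further: plate controls were untreated cells for no effect and reference antibiotic for full effect; stock transfer was 100 nL into about 80 µL; one replicate is shown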
# Mtb hypoxia inh growth – also measured in Mtb hypoxia inh; calls as there; growth inhibition, %; measured here: M. tuberculosis growth (absorbance);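 0% = vehicle and 100% = reference antibiotic; read after six days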
# Active calls of the source: *; . = not tested or not shown; & = joins results of further samples.
SMILES,PrP UTR inh,BJeLR viability,Autofluor counter,Sa ugtP lethal,Mtb hypoxia inh,Mtb hypoxia inh growth,Sa RN4220 lethal
COCCCN1C(=O)N(c2ccc(F)cc2)C(=O)C1CC(=O)Nc1ccc(OC)cc1 (stereo not given),-6,-5,3450,9,-10,2,6.0
Cc1c(C(=O)O)oc2ccc(S(=O)(=O)NCc3ccccc3)cc12,.,-8,11386,-3,1,-5,-3.8
Cc1ccc(C=NNC(=O)c2nnn(-c3nonc3N)c2-c2ccccc2)o1,.,.,.,-1,14,7,3.8
Cc1nc2sc(C(c3ccco3)N3CCC(C)CC3)c(O)n2n1 (stereo not given),-34,-5,5340,0,9,11,-12
O=C(NC1CCCCC1)c1cc(-c2ccco2)on1,-66,2,11212,0,20,23,4.5
CCCCNC(=O)CCC(=O)Nc1ccc2nc(N3CCOCC3)cc(C)c2c1,-42,0,5253,5,4,9,9.8
O=C1NC(Cc2ccccc2)C(=O)N2C1C[C@]1([C@]34CC5C(=O)NC(Cc6ccccc6)C(=O)N5C3N(S(=O)(=O)c3ccccc3)c3ccccc34)c3ccccc3N(S(=O)(=O)c3ccccc3)C21 (stereo not given in full),.,.,.,-14,-1,4,6.7
O=C(CCc1nnc(CCCCc2ccccc2)o1)NCCN1CCOC1=O,-12,6,4260,4,8,12,-1.1
O=C(NCCNC(=O)c1cc(OCC(F)(F)F)ccc1OCC(F)(F)F)Nc1ccc(Cl)cc1,.,-9,.,-2,6,-2,0.0
COc1ccc(NS(=O)(=O)c2cn(C)c(=O)n(C)c2=O)cc1,-11,1,4466,9,0,-8,2.3
Cc1cc(C)nc(NC(N)=NCCc2ccccc2)n1,-14,.,4379,-4,16,17,6.5
CCC(C)N(C)Cc1cccc(C2(O)CCN(S(=O)(=O)c3ccc(F)c(C)c3)CC2)c1 (stereo not given),5,12,2035,4,6,1,1.2
COc1ccccc1NC(=S)NC(=O)CCc1ccccc1,0,7,6673,.,.,.,.
O=C(O)c1cc(NCc2c(F)cccc2Cl)ccc1N1CCOCC1,-5,-6,16103,6,9,1,6.3
COCCNC(=O)c1onc(CS(=O)(=O)c2cc(C)cc(C)c2)c1C(=O)NCCOC,-14,14,3839,0,13,5,8.3
Nc1nc(Cl)nc2c1ncn2C1OC(CO)C(O)C1O (stereo not given),.,.,5699,-1,.,.,6.7
Cc1cc(NC(=O)c2cnn3c(C(F)F)cc(-c4ccccc4)nc23)no1,-38,-1,22272*,-7,3,10,2.8
Cc1ccc(N2CC(O)(c3cccs3)[N+]3=C2CCCC3)cc1 (stereo not given),-23,-7,4019,3,0,11,-1.1
COc1ccc(Cn2c(CCC(=O)Nc3ccccc3OC)nc3cccnc32)cc1,-17,-1,2658,7,6,4,4.5
CC(C)c1ccc(N)c(S(=O)(=O)O)c1,-22,-13,4034,5,4,-5,4.1
Cc1ccc(CCNC(=O)C2CCCN(S(C)(=O)=O)C2)cc1 (stereo not given),-28,3,3942,9,4,4,3.0
Cc1cc(S(=O)(=O)N(Cc2ccccc2F)C2CC2)ccc1-n1cnnn1,-8,9,4157,6,10,4,-6.6
Clc1ccc(OCC#CCN2CCCC2)cc1,-25,-3,4366,7,10,4,-0.5
CC(O/N=C/c1ccc(OC(F)F)cc1)C(=O)Nc1cccc(S(=O)(=O)N2CCOCC2)c1 (stereo not given),-25,4,2095,.,.,.,.
CCOc1ccc(S(=O)(=O)N2CCOCC2)cc1NC(=O)CN1C(=O)NC(CC)(c2ccccc2)C1=O (stereo not given),40,11,5410,.,.,.,.
Nc1cc(C(Cl)=C(Cl)Cl)c(S(N)(=O)=O)cc1S(N)(=O)=O,64*,.,5416,4,1,10,3.6
CC(OC(=O)C1CCCC1)C(=O)Nc1ncc(Cl)cc1Cl (stereo not given),-16,.,3961,1,5,5,3.0
Nc1c(C(=O)N/N=C/c2ccc(OCc3ccccc3)cc2)cnn1-c1ccccc1,1,7,3694,.,.,.,.
Cc1ccc(OC(=O)c2sc3ncn(C)c(=O)c3c2C)cc1,-64,-2,4354,0,-2,9,-0.7
CCn1ncc(/C=C2/SC(=S)NC2=O)c1C,-13,3,2347,-2,13,8,11
CNS(=O)(=O)c1cccc(C(=O)OCC(=O)N2CCc3ccccc3C2)c1,-1,6,3107,12,10,11,1.6
CC(C)C(C)(C#N)NC(=O)COC(=O)C1CCN(S(=O)(=O)c2ccc3c(c2)OCCO3)CC1 (stereo not given),-10,.,3822,0,3,-4,-0.2
CCN(CC)C(=O)CSc1nc2ccc(NC(=O)CSc3nnc(N)s3)cc2s1,-1,4,2414,5,-4,-8,25
Cc1nc2ccc(C(=O)N/N=C/c3ccc(O)cc3)cc2[nH]1,-5,3,3151,.,.,.,.
CNC(=O)CSc1nnc(-c2ccco2)n1-c1cc(C)ccc1C,-30,3,3898,5,7,6,1.2
N/C(CCCN1CCCCC1)=N/O,-17,-1,3249,.,.,.,.
CC(C)NC(=O)COC(=O)c1cc(=O)[nH]c2ccccc12,-9,2,10493,3,1,11,1.2
NC(=O)C1CCCN(C(=O)c2ccc(S(=O)(=O)N3CCCCCC3)cc2)C1 (stereo not given),-6,.,7700,9,13,2,5.8
N#Cc1ccc(-c2cn(-c3ccccc3)c3[n+]2CCCS3)cc1,-19,5,4836,11,8,3,5.4
CCOC1OC(C(=O)NCc2ccccc2)=CC(c2ccc(C(F)(F)F)cc2)C1CCCO (stereo not given),.,.,.,2&2,5&6,0&11,4.3&5.8
CSc1ncc(CN2CCCC(C(=O)c3ccccc3SC)C2)cn1 (stereo not given),-10,3,4876,0,9,-10,4.3
O=C(O)CCc1ccc(-c2ccccc2)n1CC(=O)Nc1cccc(C(F)(F)F)c1,-15,5,4485,-1,-7,0,1.7
CCOC(=O)CC1=C(C(=O)OCC)C(c2cc(OC)c(OC)cc2OC)C(C#N)=C(N)O1 (stereo not given),-7,-5,9126,-4,3,-5,-0.9
COC(=O)CNC(=O)CNC(=O)Nc1ccccc1Cl,-10,17,10707,7,3,7,6.9
Cc1ccccc1-c1nc(CS(=O)(=O)CC(=O)N2CCCCC2)c(C)o1,-2,9,5387,-8,-7,5,-5.0
Cn1c(=O)n(Cc2ccccc2Cl)c2ccccc21,-17,3,3454,-3,9,16,3.5
COc1ccc(S(=O)(=O)/N=C2/NC(=O)/C(=C\c3cc(OC)c(OC)cc3[N+](=O)[O-])S2)cc1,-17,-8,4384,10,5,12,0.4
COC(=O)c1ccc(NC(=O)c2cccc(N3C(=O)C4C5C=CC(C6CC56)C4C3=O)c2)cc1 (stereo not given),-17,11,5646,-1,-4,1,2.5
CCOC(=O)N1CCN(C(=O)CS(=O)(=O)c2cn(Cc3ccccc3C)c3ccccc23)CC1,-21,-6,3619,1,6,5,0.6
O=C(O)CC(NNC(=O)c1ccccc1)C(=O)Nc1cccc([N+](=O)[O-])c1 (stereo not given),-1,-11,4413,2,8,-10,0.6
CCc1cccc(NC(=O)CCCn2c(=O)[nH]c3ccsc3c2=O)c1,-12,-10,4457,3,3,1,3.5
O=C(Oc1ccc(Br)cc1C(=S)N1CCCC1)c1ccccc1F,-5,-8,11331,4,-5,-2,9.0
NC(=O)c1ccc(NC(=O)COC(=O)CNC(=O)c2sc3ccccc3c2Cl)cc1,-1,.,3841,0,5,7,2.4
O=C(CNC(=O)Cc1ccccc1)NCC(=O)OCc1ccc(C(=O)c2ccccc2)cc1,-15,-3,16310*,7,1,-2,1.6
COc1ccc(S(=O)(=O)N2CCCOC2CNC(=O)C(=O)NCCCN2CCOCC2)cc1 (stereo not given),-13,10,4540,4,-6,-4,3.5
O=C(O)c1ccccc1-c1nc2ccccc2n1-c1ccccc1,1,19,2121,-3,24,23,3.0
Cc1cc(C)nc(N2CCC(C(=O)NC3CCCc4ccccc43)CC2)n1 (stereo not given),-15,0,19820*,0,5,8,0.5
N#Cc1c(N2CCNCC2)nc(-c2ccco2)c2c1CCCC2,-5,3,.,1,15,17,-5.4
Cc1ccc(S(=O)(=O)c2c(C)nn(C(C)(C)C)c2OC(=O)C(C)(C)C)cc1,-25,-4,4758,10,.,.,9.2
CCOP(=O)(OCC)C(NC(=O)c1ccccc1)C(Cl)(Cl)Cl (stereo not given),-29,-15,7370,.,.,.,.

# Other structures:
SMILES,PrP UTR inh,BJeLR viability,Autofluor counter,Sa ugtP lethal,Mtb hypoxia inh,Mtb hypoxia inh growth,Sa RN4220 lethal
O=C(NCC1CCCO1)C(c1cccnc1)N(C(=O)Cc1cccs1)c1ccccc1 (stereo not given),-36,-11,5673,-3,8,7,6.4
Cc1ccc(C2C(C#N)=C(N)Oc3nc(-c4ccccc4)[nH]c32)o1 (stereo not given),-10,-12,3263,-5,11,6,1.5
O=C(CN(c1ccccn1)S(=O)(=O)c1ccc(F)cc1)Nc1ccccc1,-30,6,2706,3,2,9,5.8
COc1ccccc1NS(=O)(=O)c1ccc(C(=O)N2CC(C)OC(C)C2)cc1 (stereo not given),-13,.,4000,9,11,5,3.2
CCOC(=O)CC(NC(=O)c1cc2ccccc2oc1=O)c1cccc([N+](=O)[O-])c1 (stereo not given),-3,-13,2410,-13,-3,-3,8.6
O=C1Cc2ccccc2C(=O)N1CCc1ccccc1,-31,-7,4807,0,.,.,0.6
Cc1cccc(C)c1NC(=O)COC(=O)c1ccc2[nH]c3c(c2c1)CCCC3,-36,-5,3694,-2,-10,9,4.5
CCCn1cc(SCC(=O)Nc2nnc(C)s2)c2ccccc21,-10,3,5300,0,-6,10,9.7
O=C(c1cccc2ccccc12)C1CCCN(C(=O)CCN2CCCO2)C1 (stereo not given),-16,1,4313,3,15,10,1.2
C[C@@H]1CC=C[C@H]2[C@H]1C(=O)N(Cc1ccccc1)[C@H]2c1ccoc1,-13,1,3648,.,.,.,.
Cc1ccc(CNC(=O)c2oc3ccc(S(=O)(=O)N4CCOCC4)cc3c2C)cc1,6,14,6952,11,3,-1,6.2
C=CCNc1nc(-c2c(C)nc3sccn23)cs1,-12,5,4065,-11,-3,9,18
Cc1cccc(C)c1NC(=O)C1(NC(=O)C2CCCN2C(=O)OC(C)(C)C)CCCCC1 (stereo not given),-9,1,21811*,-2,3,2,3.2
O=C(c1cc2ccccc2oc1=O)N(Cc1ccco1)C1CCS(=O)(=O)C1 (stereo not given),-68,7,2859,4,6,9,4.7
COC(=O)C1=C(c2ccc(F)cc2OCc2ccccc2)CC2CCC1N2C(=O)NC1CC1 (stereo not given),.,.,.,-7,0,5,1.5

# Shown with tabs: part of the list above
canonical_smiles	PrP UTR inh	BJeLR viability	Autofluor counter	Sa ugtP lethal	Mtb hypoxia inh	Mtb hypoxia inh growth	Sa RN4220 lethal
COc1ccc(S(=O)(=O)/N=C2/NC(=O)/C(=C\c3cc(OC)c(OC)cc3[N+](=O)[O-])S2)cc1	-17	-8	4384	10	5	12	0.4
COC(=O)c1ccc(NC(=O)c2cccc(N3C(=O)C4C5C=CC(C6CC56)C4C3=O)c2)cc1 (stereo not given)	-17	11	5646	-1	-4	1	2.5
CCOC(=O)N1CCN(C(=O)CS(=O)(=O)c2cn(Cc3ccccc3C)c3ccccc23)CC1	-21	-6	3619	1	6	5	0.6
O=C(O)CC(NNC(=O)c1ccccc1)C(=O)Nc1cccc([N+](=O)[O-])c1 (stereo not given)	-1	-11	4413	2	8	-10	0.6
CCc1cccc(NC(=O)CCCn2c(=O)[nH]c3ccsc3c2=O)c1	-12	-10	4457	3	3	1	3.5

# Continuation:
SMILES,PrP UTR inh,BJeLR viability,Autofluor counter,Sa ugtP lethal,Mtb hypoxia inh,Mtb hypoxia inh growth,Sa RN4220 lethal
O=C(CSc1ccc(Cl)cc1)Nc1ccc(C2SCCS2)cc1,4,-1,4641,1,-4,2,-1.2
Cc1ccc(-c2nnc(SCC(=O)NN=Cc3ccccc3C(=O)O)n2-c2ccc(C)cc2)cc1,.,.,.,-11,-13,-8,5.2
Cn1c(CO)cnc1S(=O)(=O)Cc1ccc(Cl)cc1,-24,2,4108,0,10,9,0.4
CC(=O)c1ccc(N2CCN(C(=O)CNS(=O)(=O)c3ccc4c(c3)OCCCO4)CC2)c(F)c1,-10,.,4642,-9,-16,-12,-3.7
Cc1ccc(NC(=S)N2CCC(NC(=O)c3ccco3)CC2)cc1C,-13,-4,3338,4,6,0,-0.7
COc1c(N2CCN(C(=S)Nc3ccc(F)cc3)C(C)C2)c(F)cc2c(=O)c(C(=O)O)cn(C3CC3)c12 (stereo not given),2,-2,3372,99*,.,.,100*
CC12CC3CC(C)(C1)CC(C(=O)Nc1nncs1)(C3)C2,9,-14,3290,-5,3,-2,5.5
CC(/C=N/NC(=O)c1nnn(-c2nonc2N)c1CN(C)C)=C\c1ccco1,4,1,4252,.,.,.,.

# Screening data deposited in PubChem by several laboratories.
